HSV augment = enhancers of HSV replication in host cells, fold increase, host cell viability; HSV replication augmentation in cells; maximum fold increase; 220,000 compounds, 0.005% hits; AID 1956, 2009;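 active means peak rise of 1.5-fold or more in the series; tested in PC3 cells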;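 further: first round at 10 µM; read as green reporter fluorescence; hits show the peak of a series up to 25 µM; 1 = signal of infected wells without compound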
PKD1 inh = inhibitors of human PKD1 kinase, biochemical, fluorescence polarization; PKD1 kinase fluorescence polarization assay; 200,000 compounds, 0.056% hits; Serine/threonine-protein kinase D1 (Homo sapiens), Q15139; AID 797, 2007; inhibition, %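 (about 10 µM by stock and volumes)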;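 active means inhibition of 50% or more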;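 further: controls were vehicle for no effect and a reference inhibitor for full effect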
Target sequence (Q15139 whole entry, looked up): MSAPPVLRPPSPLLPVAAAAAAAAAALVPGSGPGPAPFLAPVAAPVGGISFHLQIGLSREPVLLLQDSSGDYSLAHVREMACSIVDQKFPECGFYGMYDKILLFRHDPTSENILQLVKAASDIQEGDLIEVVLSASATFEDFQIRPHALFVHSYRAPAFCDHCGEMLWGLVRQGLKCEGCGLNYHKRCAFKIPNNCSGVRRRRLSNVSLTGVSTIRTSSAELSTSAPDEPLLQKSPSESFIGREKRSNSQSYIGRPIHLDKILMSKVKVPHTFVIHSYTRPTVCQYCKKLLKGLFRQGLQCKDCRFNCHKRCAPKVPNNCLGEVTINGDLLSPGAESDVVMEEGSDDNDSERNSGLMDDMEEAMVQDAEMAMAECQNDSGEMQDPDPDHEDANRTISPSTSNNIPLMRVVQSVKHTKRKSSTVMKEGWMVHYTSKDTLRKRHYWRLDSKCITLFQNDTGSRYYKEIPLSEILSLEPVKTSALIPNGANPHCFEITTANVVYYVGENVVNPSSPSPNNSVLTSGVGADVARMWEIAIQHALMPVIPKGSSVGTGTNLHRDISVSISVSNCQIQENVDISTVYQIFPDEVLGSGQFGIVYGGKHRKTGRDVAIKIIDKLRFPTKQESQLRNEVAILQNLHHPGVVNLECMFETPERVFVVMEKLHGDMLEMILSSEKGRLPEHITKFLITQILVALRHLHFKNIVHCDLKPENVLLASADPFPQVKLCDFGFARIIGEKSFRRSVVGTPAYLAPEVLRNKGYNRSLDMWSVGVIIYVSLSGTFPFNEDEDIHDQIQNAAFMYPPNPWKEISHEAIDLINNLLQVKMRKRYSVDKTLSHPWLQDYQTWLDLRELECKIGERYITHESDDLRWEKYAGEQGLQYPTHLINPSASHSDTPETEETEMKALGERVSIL
RGS16-Gao HTS = modulators of RGS16 binding to Galphao, primary screen, biochemical, human proteins, multiplexed bead flow cytometry. Regulator of G-protein signaling 16 (Homo sapiens) + Guanine nucleotide-binding protein …. bead-based flow cytometry RGS16-Galphao binding, fluorescence; actives lie on both sides. binding response (% of control), % at 10 µM. 220,000 compounds, 0.38% hits;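 active means below 25% or above 175%, edge rows of some plates excepted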;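 further: Galphao activated by GDP with aluminum fluoride before binding; 100% = wells without compound and 0% = beads without RGS; some results beyond the cut were filed as inactive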
INS promoter inh = inhibitors of insulin promoter-driven GFP, primary screen, imaging, TRM-6 cells (human fetal islet line), eGFP reporter, cell count. inhibition, % at 2 µM. 130,000 compounds, 0.9% hits. reporter expression induced with tamoxifen;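 active means inhibition above the mean plus 3 SD, with well images judged a real hit on visual review, cut at about 60% in these data, passing the limit was not always enough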
GALR2 agonist = GALR2 receptor agonists, primary screen, cell-based. activation, %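 (tested at 5 µM)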. Galanin receptor type 2 (Homo sapiens), O43603. 140,000 compounds, 0.48% hits. GALR2-expressing cells, agonist activation read-out;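 active means above mean plus 3 SD of all compounds, about 5% in these data, not always enough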;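 further: 0% = vehicle buffer wells and 100% = reference agonist at full effect; tested in CHO reporter cells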
INS promoter inh cell count = recorded beside INS promoter inh, whose call it bears; normalized cell count, %; measured here: cell count, toxicity; reference of the scale not given here;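 cells exposed to compound for 48 h; stained nuclei by imaging scaled within each plate; lower means fewer cells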
HSV augment primary fold = also measured in HSV augment; calls as there; fold increase; compound at 10 µM; measured here: primary screen fold increase 10 uM; tested in PC3 cells;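 GFP signal in the first replicate; 1 = infected wells without compound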
Starred values were filed as active, the others as inactive; i = inactive; / = no result given.

SMILES	HSV augment	HSV augment primary fold	PKD1 inh	RGS16-Gao HTS	INS promoter inh	INS promoter inh cell count	GALR2 agonist
O=C(NCc1ccccc1Cl)c1ccc(S(=O)(=O)Nc2cccc(C(F)(F)F)c2)cc1	i	0.85	-8	103	-17	115	-1.3
Cc1csc(NC(=O)Cc2nn(C)c(=O)c3ccccc23)n1	i	0.88	-4	103	14	235	0.3
COc1ccc(OC)c(CN2C(=O)c3ccccc3C2C(=O)NCC2CCCO2)c1 (stereo unspecified)	i	1	-4	111	-165	87	/
Cc1cc(C)c(C)c(OCCCn2ccnc2)c1	i	1	-9	97	-17	112	-0.5
Cc1c(C(=O)NCC2CCCO2)oc2ccc(S(=O)(=O)N3CCCC3)cc12 (stereo unspecified)	i	0.88	-15	100	-46	127	-1.6
Cn1c(NCc2cc(Br)ccc2O)nc2ccccc21	i	0.85	-18	291	/	/	-0.9
Nc1cc(Oc2ccc(F)cc2F)cc([N+](=O)[O-])c1	i	0.95	-6	106	7	61	/
Cc1ccsc1C(=O)OCC(=O)NCc1ccc2c(c1)OCO2	i	1	-11	105	21	108	-1.7
CCOC(=O)c1cnc(-n2[nH]c(C)cc2=O)[nH]c1=O	i	0.84	2	102	60	128	/
CCN(CC)C(=O)CSc1nc(N)c(C(=O)Nc2ccc(OC)cc2)s1	i	0.9	-2	107	-15	90	-1.4
Cc1cccc2nc(-c3cccc(NC(=O)Cc4ccccc4)c3)cn12	i	0.76	-1	99	/	/	-0.7
C=CCSc1nc2c(c(=O)[nH]c(=O)n2C)n1C/C=C(/C)Cl	i	0.85	-14	103	-21	119	-1.8
O=C(CCC(=O)OCc1ccc([N+](=O)[O-])cc1)Nc1ccccc1Cl	i	0.77	1	78	-50	97	/
O=C1CC(c2ccccc2Oc2cccc(Cl)c2)C(n2cncn2)C(=O)C1C1NCCc2ccccc21 (stereo unspecified)	i	1.1	/	104	/	/	/
CC(C)NC(=O)COc1cccc2ccccc12	i	0.86	-2	98	/	/	/
CCN(CC)C(=O)C12CC3CC(CC(Cl)(C3)C1)C2	i	1.2	13	104	/	/	-0.1
O=C1NC(c2cccc(Br)c2)=N/C1=C\c1ccco1	i	1.1	12	101	3	135	-0.8
CCNc1nnc(-c2ccccc2OC)s1	i	0.98	3	99	-17	93	-1.6
NC(=S)n1[nH]c(-c2ccc([N+](=O)[O-])cc2)c(N=Nc2cccc(Cl)c2)c1=O	i	1.1	0	100	6	70	/
CC(CCc1ccccc1)NC(=O)CN1CCN(c2ccccc2)CC1 (stereo unspecified)	i	0.97	-4	109	/	/	/
O=C(NCc1ccco1)c1ccc(COc2ccccc2Cl)cc1	i	0.85	-5	99	/	/	-1.3
Cc1cc(C)cc(OCC(=O)N(Cc2ccc(N(C)C)cc2)C2CCS(=O)(=O)C2)c1 (stereo unspecified)	i	0.93	/	103	/	/	/
CCOC(=O)N1CCN(S(=O)(=O)c2ccc(C)c(C)c2C)CC1	i	0.98	-6	95	52	103	0.6
COc1cccc(Nc2nc(-c3cccc(N4C(=O)c5ccccc5C4=O)c3)cs2)c1	i	1	2	101	/	/	-0.6
CCN(CC)C(=O)Cn1cc(C(=O)C(=O)NCC2COc3ccccc3O2)c2ccccc21 (stereo unspecified)	/	/	-6	101	-38	118	/
CCOC(=O)C1CCCN(C(=O)c2cccc(NC(=O)C(CC)CC)c2)C1 (stereo unspecified)	i	1	4	97	-75	136	/
CCN(C(C)=O)c1ccc(Oc2nc(OC)cc(OC)n2)cc1	i	0.92	-1	111	/	/	/
COc1ccc2c(c1)oc(=O)c1c3ccccc3[nH]c21	i	0.89	0	98	/	/	/
CCC1(C)Cc2nc3[nH]c(=S)n(-c4ccccc4C)c(=O)c3cc2CO1 (stereo unspecified)	i	1	/	97	/	/	/
Nc1ccc(C(=O)c2cccs2)cc1[N+](=O)[O-]	i	0.92	9	100	12	96	/
COC(=O)c1ccc(C)c(NS(=O)(=O)c2ccc(OC)c(OC)c2)c1	i	0.72	4	101	53	107	-1.6
O=C(CSc1ccc(-c2ccncc2)nn1)c1ccc(Cl)cc1	i	0.9	-9	85	31	76	/
O=C(NCc1cccs1)C(=O)c1cn(CC(=O)N2CCCC2)c2ccccc12	/	/	-4	101	-69	100	/
COc1cc(/C=C(\C#N)c2nc3ccccc3[nH]2)ccc1OC(=O)c1ccco1	/	/	19	110	-36	155	-0.1
CN1C(=O)NC(c2ccccc2)C2=C1CN(CCc1ccccc1)C2=O (stereo unspecified)	i	0.97	-7	99	8	180	-0.9
COc1ccc2nc(C)c(C(=O)NN)cc2c1	i	0.91	2	87	8	84	-2.0
COc1ccc(C(=O)Oc2cccc(Nc3ncnc4ccccc34)c2)cc1OC	i	0.97	-4	138	-9	67	0.5
Cc1ccc(NS(=O)(=O)c2ccc(Br)s2)nc1	i	0.98	-5	103	/	/	/
CC(=O)Nc1ccccc1-c1nc2ccccc2nc1OCC(=O)c1ccc2ccccc2c1	i	0.94	-7	105	/	/	-2.5
COc1cccc(NC(=O)C(c2ccccc2)N2CCCCC2)c1 (stereo unspecified)	i	0.94	-11	99	-50	128	/
O=C(Nc1cccc(Cl)c1)c1cccc(Oc2ccc([N+](=O)[O-])cc2Cl)c1	i	0.82	-3	97	4	183	0.5
CCn1cnc2c1c(=O)n(Cc1nnc3n1-c1ccccc1SC3)c(=O)n2Cc1ccccc1	i	1	-7	112	/	/	-0.8
Nc1nnc(CSCc2ccccc2Cl)s1	i	1.1	/	102	/	/	/
O=C(O)CC(NC(=O)COc1ccc(Cl)cc1Cl)C(=O)O (stereo unspecified)	i	1.1	-5	25	46	93	-4.4
COc1ccc(C2CC2/C(=N/O)c2ccccc2)cc1 (stereo unspecified)	i	1.1	-4	94	0	101	/
Cc1ccc(NC(=O)Cn2c(C)cc(C)c(C#N)c2=O)c(Cl)c1	i	1.1	-12	100	/	/	-0.5
CCOC(=O)c1nnn(-c2nonc2N)c1CSc1ccccc1	i	0.71	5	98	-14	125	-1.5
O=C(Nc1ccc(Cl)c(Cl)c1)c1ccc(Cl)c(Cl)c1	i	0.96	/	94	/	/	/
CCOC(=O)/C(C#N)=C/c1cn(CCOc2ccc(OC)cc2)c2ccccc12	i	0.98	5	127	13	99	-2.2
COC(=O)c1ccsc1NC(=O)c1ccc2c(c1)OCCO2	i	1.1	/	82	/	/	/
COC(=O)c1[nH]c2ccc(C)cc2c1NS(=O)(=O)c1ccc(F)c(C)c1	/	/	-3	116	42	98	-0.4
COc1ccc(NS(=O)(=O)c2cccc(NC(=O)CNC(C)=O)c2)cc1	i	1	/	104	/	/	/
Cn1nnc2c(sc3nc(N4CCOCC4)c4c(c32)CCCC4)c1=O	i	1	-12	102	/	/	0.9
O=C(CCl)NC1(C(F)(F)F)C(=O)Nc2c1c(=O)[nH]c(=O)n2-c1ccccc1 (stereo unspecified)	i	0.93	/	102	/	/	/
Cc1cc(NC(=O)CSc2nnnn2C2CCCC2)no1	i	0.98	0	103	20	73	-1.6
CCC(NS(=O)(=O)c1c(C)[nH]c(=O)[nH]c1=O)C12CC3CC(CC(C3)C1)C2 (stereo unspecified)	i	1.1	4	94	0	113	-1.0
CS(=O)(=O)N(CC(=O)Nc1ccc(Cl)c(Cl)c1)C1CCCCC1	i	0.62	-5	104	-6	124	-1.5
CC(=O)Nc1nc(-c2ccc(Br)s2)cs1	i	0.82	-4	102	-12	67	-1.0
CCCS(=O)(=O)N1CCC(C(=O)NCCN(C)Cc2ccccc2)CC1	i	0.98	8	102	62	108	-0.6
CCOC(=O)N1CCC(NC(=O)C2CCCN(C(=O)N3CCOc4ccccc43)C2)CC1 (stereo unspecified)	i	1	-8	95	/	/	-1.1
New compounds follow.
SMILES	HSV augment	HSV augment primary fold	PKD1 inh	RGS16-Gao HTS	INS promoter inh	INS promoter inh cell count	GALR2 agonist
CCOc1ccc2c(c1)sc(=NC(=O)C1CC1)n2C	i	0.77	11	105	50	125	-3.5
CS(=O)(=O)N(CC(=O)N1CCc2ccccc2C1)c1ccc2c(c1)OCO2	i	1.1	-7	114	-13	136	0.2
CC1=NN(C(=O)COc2ccccc2C)C(O)(c2ccc(Cl)cc2)C1 (stereo unspecified)	i	1.1	-6	166	/	/	-0.7
Oc1ccc(/C=N/Nc2ccc3ccccc3c2)c(O)c1	i	1	-6	98	7	141	/
CN(C)S(=O)(=O)c1cccc(-c2cn3cccnc3n2)c1	i	0.94	2	100	27	124	/
CCNS(=O)(=O)c1ccc(CCC(=O)Nc2ccccc2)cc1	i	0.95	4	101	-21	77	/
COc1ccc(N=Cc2c(O)n(-c3ccc(OC)cc3)c(=O)c3ccccc23)cc1	i	0.97	-4	96	-125	53	/
O=C(N/N=C/c1ccc([N+](=O)[O-])cc1)c1c[nH]c2ccccc12	i	0.85	1	86	/	/	/
COC(=O)c1cc(NC(=O)CN(c2cccc(OC)c2)S(=O)(=O)c2ccccc2)ccc1Cl	i	1.1	-11	35	/	/	-0.9
Cc1cccc2c(C(=O)O)cc(-c3cccnc3)nc12	i	1.1	3	99	/	/	/
O=C1C2C(C(=O)N1c1ccc3c(c1)OCO3)C1C=CC2C12CC2 (stereo unspecified)	i	0.94	2	102	21	135	-1.7
CCOC(=O)N1CCC(N2CCCC(C(=O)c3cccc(OC(C)C)c3)C2)CC1 (stereo unspecified)	i	0.72	/	101	/	/	/
CC(CNC(=O)c1cccs1)c1ccc([N+](=O)[O-])cc1 (stereo unspecified)	i	1.1	5	102	/	/	/
Cc1cccc(-n2c(N)cc(=O)nc2SCC(=O)Nc2nnc(CC(C)C)s2)c1	/	/	-4	85	17	104	-1.1
Cn1c(CCNC(=O)c2cccs2)n[nH]c1=S	i	0.82	0	97	-47	99	0.3
N/C(=N\OC(=O)Oc1ccccc1)c1ccc(Br)cc1	i	1	-8	101	-493	67	0.3
CCOC(=O)n1c(=O)oc2cc(S(=O)(=O)N3CCOCC3)ccc21	i	1.2	5	89	/	/	0.9
O=C(CCS(=O)(=O)c1ccc(Br)cc1)Nc1ccc(Cl)cc1F	i	0.78	-13	98	-51	115	-0.5
CCCCCC(=O)NC(=S)NNC(=O)CC	i	0.77	-5	100	54	110	-1.6
CCC1(CC)NC(=O)N(CC(=O)Nc2sc3c(c2C(N)=O)CCC3)C1=O	i	1.2	3	96	36	160	-1.3
COCCn1c(CN(C)Cc2ccccc2)nc2c1c(=O)n(C)c(=O)n2C	i	1	-2	97	/	/	-2.1
CC(C)(C)C1CCC2(CC1)CC(=O)c1ccccc1O2 (stereo unspecified)	i	1.1	/	103	/	/	/
O=C1c2nc3cc(-c4ccco4)[nH]n3c(=O)c2CN1Cc1ccccc1	i	1.1	/	101	/	/	/
O=C(NN=C(Cc1ccccc1)Cc1ccccc1)c1ccncc1	i	1.3	/	102	/	/	/
CC(C)(C)SCCNC(=O)CN(c1ccc(F)cc1)S(=O)(=O)c1ccccc1	i	0.99	-3	102	/	/	/
COC(=O)c1cc(C(C)=O)c(C)[nH]c1=O	i	0.93	-3	99	-6	153	/
Nc1c2c3c(sc2nc(=O)n1N)CCCC3	i	0.91	-3	103	/	/	/
CCN(CC)c1ccc(N2C(=O)C3CCCCC3C2=O)cc1[N+](=O)[O-] (stereo unspecified)	i	0.91	-9	108	-33	133	-0.1
O=C(NCCCn1ccnc1)c1ccncc1	i	0.96	-3	109	11	106	-2.7
Cc1cc(C)nc(NC(=O)Nc2ccccc2C(F)(F)F)n1	i	0.62	1	101	-9	128	0.2
